Source: PubChem (National Center for Advancing Translational Sciences (NCATS))
TRPML1 agonist: agonists of human TRPML1 channel. Q9GZU1. TRPML1-expressing cells, Ca2+ dye fluorescence, FDSS; host cell line not named in the record; reference of the full effect not given here. activation, % (test concentration not listed). 410,000 compounds, 0.12% hits. AID 624414; in the data active = activation above about 50%; inconclusive = about 30% to 50%; inactive = below about 30%; also: 0% is about no effect; the text of the record puts the active cut at 80%
Target sequence (Q9GZU1 whole entry, looked up): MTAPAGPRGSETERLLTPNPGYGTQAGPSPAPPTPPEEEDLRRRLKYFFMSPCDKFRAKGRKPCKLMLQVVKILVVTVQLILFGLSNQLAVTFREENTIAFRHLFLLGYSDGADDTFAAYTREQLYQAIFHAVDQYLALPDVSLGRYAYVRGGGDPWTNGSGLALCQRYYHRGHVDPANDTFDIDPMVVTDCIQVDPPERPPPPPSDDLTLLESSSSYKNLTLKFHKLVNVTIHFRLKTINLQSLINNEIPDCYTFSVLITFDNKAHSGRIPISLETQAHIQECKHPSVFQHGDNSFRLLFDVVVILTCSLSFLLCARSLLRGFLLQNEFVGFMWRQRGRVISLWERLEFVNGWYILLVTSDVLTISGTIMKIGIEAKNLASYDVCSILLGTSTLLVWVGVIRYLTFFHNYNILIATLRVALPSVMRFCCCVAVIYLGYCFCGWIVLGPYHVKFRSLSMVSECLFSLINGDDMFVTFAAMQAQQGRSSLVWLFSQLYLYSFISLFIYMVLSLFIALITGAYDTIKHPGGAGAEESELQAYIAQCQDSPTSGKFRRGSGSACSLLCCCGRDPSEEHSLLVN
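Tetracycline-induced TRPML1-DL cells are seeded and incubated overnight before loading with a no-wash Ca2+ dye and quencher. Agonist activity is taken from the 110 s fluorescence read following compound pin-transfer on an FDSS, before EC80 54-4 challenge.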
Six1-Eya2 blk: blocks human Six1 binding to Eya2; Q15475+O00167; AlphaScreen GST-Six1/His-Eya2 binding, biochemical; stronger effect = lower value; control for the full effect not named in the record; activity change, % (no concentration beside the values); 360,000 compounds, 0.56% hits; AID 651725; in the data active = activity change below about -65%; inconclusive = about -30% to -65%; inactive = above about -30%; also: % is scaled to controls: 0 for no effect and ±100 for the full control effect
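GST-Six1 + His-Eya2 (5X stock: 250/500 nM); Tris pH 8.0, 300 mM NaCl, 0.05% BSA, 0.02% Tween 20; GSH donor/Ni acceptor beads; 1 h 37 °C dark; AlphaScreen readout.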
PINK1 modulator: PINK1 expression modulation; 410,000 compounds, 0.2% hits; Potency, µM (doses to about 76.6 µM), for the others: at the top dose activation (PINK1 increase), hits mostly activators; PINK1 immunofluorescence, high-content cytometry, 24 h; active = well fitted activation curve with a large enough effect; inconclusive = small, poorly fitted or top-dose-only effect; inactive = flat fitted curve, though single readings scatter; cell line not stated here;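 also: potency is read from the fitted curve at half-maximal effect; % of control where 0% means no effect; nearly all actives have a fitted effect of over 65% in size; a mitochondrial uncoupler was the plate control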
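PINK1 protein level read as immunofluorescence by microplate cytometer in a fixed, stained stable cell line after 24 h exposure to five compound concentrations, with CCCP as control.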
D2 PAM: human D2 receptor positive allosteric modulation; P14416; DiscoveRx D2 beta-arrestin cells, luminescence, 90 min; 100% = 57 uM dopamine signal; potentiation, % (no concentration beside the values); 360,000 compounds, 0.23% hits; active = potentiation of 50% or more; inconclusive = 30% to 50%; inactive = 30% or less;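 also: compound concentration not given in the record; tested on top of an EC20 dose of dopamine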
Target sequence (P14416 whole entry, looked up): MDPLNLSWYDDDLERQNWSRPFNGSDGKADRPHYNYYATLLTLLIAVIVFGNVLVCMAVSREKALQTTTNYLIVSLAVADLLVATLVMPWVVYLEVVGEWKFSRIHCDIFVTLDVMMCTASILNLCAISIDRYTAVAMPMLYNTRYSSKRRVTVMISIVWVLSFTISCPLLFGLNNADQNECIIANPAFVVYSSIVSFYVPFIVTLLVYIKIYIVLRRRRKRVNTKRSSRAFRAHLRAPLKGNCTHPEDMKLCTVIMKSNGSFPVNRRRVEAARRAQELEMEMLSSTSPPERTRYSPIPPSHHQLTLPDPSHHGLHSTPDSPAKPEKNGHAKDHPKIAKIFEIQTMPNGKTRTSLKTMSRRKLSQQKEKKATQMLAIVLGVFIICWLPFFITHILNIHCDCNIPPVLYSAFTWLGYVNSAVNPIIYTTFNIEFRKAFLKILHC
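D2 cells co-treated with compound plus 50 nM dopamine (EC20) for 90 min at 37 deg C to detect potentiation. Beta-arrestin recruitment was read as enzyme-fragment luminescence after 1 h at ambient temperature. Full response was set by 57 uM dopamine.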
CtBP-E1A blk: CtBP/E1A binding inhibition; AlphaScreen GST-E1A/His-CtBP binding, 1536-well; stronger effect = lower value; control for the full effect not named in the record; activity change, % (concentration not given with the values); 340,000 compounds, 0.49% hits; in the data active means activity change below about -65%; inconclusive means about -30% to -65%; inactive means above about -30%; also: % is scaled to controls: 0 for no effect and ±100 for the full control effect
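Protein mix (5X: 125 nM each GST-E1A, His-CtBP) was incubated with pinned compound 2 h at 37 deg C in dark, in 50 mM Tris pH 8.0 buffer with 300 mM NaCl. Glutathione donor and nickel acceptor beads followed; AlphaScreen signal read after 1 h.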
D2 ag: human D2 receptor agonism in beta-arrestin assay; activation, % (no concentration beside the values); P14416; 360,000 compounds, 0.084% hits; DiscoveRx PathHunter D2 beta-arrestin, luminescence, 90 min; 100% = 57 uM dopamine signal; in the data active = activation above about 40%; inconclusive = about 15% to 40%; inactive = below about 15%; also: compound concentration not given in the record; the text of the record calls up to 30% inactive
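DiscoveRx PathHunter D2 beta-arrestin cells (2,100/well) attached overnight, then compound-stimulated 90 min at 37 C in HBSS/10 mM HEPES/0.1% Tween-20 buffer; beta-galactosidase complementation read by luminescence after 1 h at ambient temperature. Dopamine 57 uM final (EC100) as control.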
Active calls of the source: *; ? = inconclusive; . = not tested or not shown; & = joins results of further samples; [ ] = another dose, or the depositor's remark. Rows are unselected; 1.3% or so of the library scored in one or more.

Structure | TRPML1 agonist | Six1-Eya2 blk | PINK1 modulator | D2 PAM | CtBP-E1A blk | D2 ag
CCCNC(=O)C(Cc1ccc(I)cc1)NC(=O)c1ccc2ccccc2n1 (stereo not drawn) | 0.9 | -1 | 1.8% | -12 | -24 | 0.8
CC[N+](CC)(CC=C(C)C)CC(=O)OC | 0.1 | 6 | 1.1% | 1 | -19 | -11
Cc1cc(C)c(NC(=O)c2ccc[n+](Cc3ccc([N+](=O)[O-])cc3)c2)c(C)c1 | 0.1 | 5 | 0.1% | -8 | 8 | -4.3
c1ccc(-c2nnc3nc(N4CCCCC4)nc(N4CCCCC4)n23)cc1 | 0.4 | 1 | ? | -3 | -11 | -1.0
COc1ccc2oc3c(ccc[n+]3C)c(=O)c2c1 | 0.1 | 3 | -0.3% | -8 | 7 | -3.4
O=c1cc(N2CCc3ccccc3C2)[nH]c(=O)n1C1CCCCC1 | -0.7 | 10 | 7.0% | -5 | -5 | -2.2
NC(=O)CCCn1c(C(=O)c2ccc(Cl)cc2)c2ccc(C(F)(F)F)cc2[n+]1[O-] | -0.7 | 2 | 0.8% | -2 | 5 | 5.8
C=CCn1c(-c2ccccc2[N+](=O)[O-])n[nH]c1=S | -0.3 | 7 | 2.6% | -3 | 8 | 6.3
C=CCSc1nc2nc(C)cc(C)n2n1 | 0.8 | 1 | 8.3%[38.3 µM] | 3 | 7 | -2.6
O=C(CC1SC(=Nc2ccccc2)N(Cc2ccccn2)C1=O)Nc1ccc(Br)cc1 (stereo not drawn) | 0.0 | -25 | ? | -17 | -9 | -2.1
CN(C)c1ccc(C=NCCC2(c3ccccc3)CCOC(C)(C)C2)cc1 (stereo not drawn) | -0.7 | 3 | 0.4% | -3 | 6 | 0.1
CNc1cc(-c2cccc(C(=O)N3CCOCC3)c2)ncn1 | -0.3 | 5 | 0.6% | -4 | -19 | 6.2
CCCOc1ccc(N2C(=O)CC(N(CCc3ccc(OC)c(OC)c3)C(=O)c3ccccc3)C2=O)cc1 (stereo not drawn) | 0.5 | 3 | 0.1% | 1 | . | 4.3
CSc1nc(N)c(C(=O)Nc2ccc([N+](=O)[O-])cc2)s1 | 0.3 | -21 | 0.1% | ? | . | 6.2
CCn1c(SCC(=O)NC2CCCCC2)nc2c(c1=O)SC(C)C2 (stereo not drawn) | -1.7 | 1 | -1.1% | 10 | 11 | 0.8
CCCCCOC(=O)Cn1c(=O)oc2ccccc21 | -0.2 | 13 | -0.2% | -4 | 1 | -0.9
O=C(Nc1ccc2c(c1)OCO2)c1c[nH]c(=O)n(-c2ccc(F)cc2)c1=O | 0.1 | -17 | 2.1% | 3 | -17 | 0.2
CC(C)N=C1NN=C(c2cccs2)C(CC(=O)O)S1 (stereo not drawn) | -0.9 | 0 | 3.2% | -6 | -5 | -2.4
Cc1[nH]n(-c2ccccc2)c(=O)c1C(C[N+](=O)[O-])c1ccc(F)cc1 (stereo not drawn) | 0.9 | 1 | -1.1% | -14 | -8 | -1.2
COc1ccc(NC(=O)N(C)C[C@H]2Oc3cc(Br)ccc3S(=O)(=O)N([C@H](C)CO)C[C@@H]2C)cc1 | -0.4 | -1 | 0.4% | -3 | -7 | -3.6
O=C(NC1CCCCC1)C(c1ccncc1)N(C(=O)Cc1cccs1)c1ccccc1 (stereo not drawn) | -0.3 | 5 | 1.2% | -5 | . | 0.5
COc1ccc(-c2cc(C(=O)N3CCN(C(c4ccccc4)c4ccccc4)CC3)no2)cc1OC | 2.1 | -13 | 10%[38.3 µM] | -6 | 17 | -0.1
CCN1CCc2c(C#N)c(N3CCOCC3)nc(NCCO)c2C1 | 0.1 | 8 | 0.0% | 10 | -5 | 0.8
O=C(Nc1ccccc1N1CCCCC1)C1CCN(S(=O)(=O)c2cccc(C(F)(F)F)c2)CC1 | 0.1 | 0 | 0.2% | -13 | -2 | -2.6
CC(=O)Nc1ccc(S(=O)(=O)Oc2cccc(N3C(=O)C4CC=CCC4C3=O)c2)cc1 (stereo not drawn) | 0.6 | 1 | . | -1 | -3 | 1.2
CCC(CO)Nc1ncc([N+](=O)[O-])cc1C#N (stereo not drawn) | 0.7 | 12 | 0.9% | -7 | -9 | 0.4
O=C(CN1CCN(C(=O)c2ccco2)CC1)Nc1cc(S(=O)(=O)N2CCCC2)ccc1Cl | -0.7 | -5 | 1.6% | 2 | 32 | 0.8
N#CCCn1c(C2CCCCC2)nc2ccccc21 | -0.3 | -21 | -1.0% | -7 | 7 | -0.7
CC(=O)c1cccc(NC(=O)c2ccc3c(c2)CCCC3)c1 | 0.2 | 8 | -0.6% | -50 | 2 | -3.9
O=S(=O)(c1cccc(S(=O)(=O)N2CCCC2)c1)c1cccc(S(=O)(=O)N2CCCC2)c1 | 1.7 | 2 | -0.9%[38.3 µM] | 5 | 6 | -0.5

Brought forward from above: 4 entries; new compounds follow.
Structure | TRPML1 agonist | Six1-Eya2 blk | PINK1 modulator | D2 PAM | CtBP-E1A blk | D2 ag
O=C(CN1CCN(C(=O)c2ccco2)CC1)Nc1cc(S(=O)(=O)N2CCCC2)ccc1Cl | -0.7 | -5 | 1.6% | 2 | 32 | 0.8
N#CCCn1c(C2CCCCC2)nc2ccccc21 | -0.3 | -21 | -1.0% | -7 | 7 | -0.7
CC(=O)c1cccc(NC(=O)c2ccc3c(c2)CCCC3)c1 | 0.2 | 8 | -0.6% | -50 | 2 | -3.9
O=S(=O)(c1cccc(S(=O)(=O)N2CCCC2)c1)c1cccc(S(=O)(=O)N2CCCC2)c1 | 1.7 | 2 | -0.9%[38.3 µM] | 5 | 6 | -0.5
CSC1=NCCN1C(=O)c1ccc(C)cc1 | -0.3 | 11 | 0.3% | -2 | 7 | 3.4
CC(=O)c1cccc(N2C(=NC(=O)C(C)C)SC3CS(=O)(=O)CC32)c1 (stereo not drawn) | 1.1 | 11 | 0.5% | 4 | -1 | -2.3
CCn1c(SCC(=O)Nc2ccc(N3CCOCC3)c(Cl)c2)nnc1-c1ccc(N)cc1 | 1.8 | -3 | 1.0% | -8 | -4 | 4.1
O=C(NN1C(=O)c2ccccc2NC1c1ccccn1)c1ccc([N+](=O)[O-])cc1 (stereo not drawn) | 0.9 | 1 | 1.4% | -6 | -12 | 7.4
COC(=O)c1cccc(NC(=O)Cc2ccccc2[N+](=O)[O-])c1C | 1.0 | 4 | 1.4% | -10 | -2 | -5.5
O=C(/C=C/c1ccc(F)cc1)OCC(=O)c1ccc[nH]1 | 1.0 | 2 | 0.0% | -4 | ? | 2.3
CC(C)(C)OC(=O)NCCCCCNC(=O)c1nc[nH]c1C(=O)N1CCN(c2ccccc2)CC1 | -0.8 | -7 | 0.4% | 0 | -4 | 2.1
CN1CCN(c2nc(-c3ccccc3)c3cc(Cl)ccc3n2)CC1 | -0.9 | 11 | -0.5% | -20 | 10 | -3.9
Cc1nnc(SCC(=O)NC2CC2)n1CC1CCCO1 (stereo not drawn) | 2.6 | 0 | 2.8% | -12 | 6 | 2.7
CC(=O)Nc1ccc2nc(NC(=O)C(Cl)(Cl)Cl)sc2c1 | -1.3 | -3 | -2.5% | -11 | 3 | -3.8
Cc1ccc(C)c(OCC(=O)Nc2cc(C(=O)O)cc(C(=O)O)c2)c1 | 0.6 | 3 | 1.7% | -2 | . | -2.5
CCc1cccc(CC)c1NC(=O)CO/N=C(\C)c1cccs1 | 1.9 | 5 | 3.2% | 14 | 12 | -3.5
COC(=O)COc1ccc(S(=O)(=O)Nc2ccc(C(N)=O)cc2)cc1Cl | 0.8 | 2 | 12%[38.3 µM] | 0 | 2 | -0.5
COC(=O)c1ccc(C2/C(=C(\O)c3ccc4c(c3)OCCO4)C(=O)C(=O)N2CCCN(C)C)cc1 (stereo not drawn) | 0.4 | 3 | -1.3% | 9 | 4 | -3.5
CC(C(=O)OCC(=O)N1CCCCC1)N1C(=O)c2ccccc2C1=O (stereo not drawn) | -0.3 | 1 | -1.1% | -10 | -2 | -3.0
CC(OC(=O)c1cccc(-n2cnnn2)c1)C(=O)Nc1ccc(F)cc1Cl (stereo not drawn) | 1.2 | 3 | -1.8% | -15 | 4 | -0.8
COc1ccccc1C(=O)Nc1nc2cc3c(cc2s1)OCO3 | . | 3 | 0.4% | 0 | 2 | -3.5
O=C(Nc1ccccc1)NC1(C(=O)NCCCN2CCOCC2)CCCCC1 | -0.1 | 5 | 1.6% | -16 | 0 | -2.6
NC(=O)N/N=C\c1cccs1 | 2.8 | 0 | -0.6% | -3 | -12 | -2.8
N/C(=N\OC(=O)CSc1ccccc1)c1cccc([N+](=O)[O-])c1 | 4.4 | -10 | -1.7% | 0 | -6 | -5.0
COc1ccccc1-n1c(C)c2c(OC)cccc(=O)c2c1C | 0.6 | -10 | 7.5% | 17 | 3 | 2.6
CCCn1c(/C=C/c2ccccc2)nc2ccccc21 | 0.1&1.9 | 35 | 1.2% | -14 | 57 | 1.1
CCOC(=O)COc1ccc(S(=O)(=O)N2CCN(c3ccccc3F)CC2)cc1 | 1.8 | 5 | 1.9%[38.3 µM] | -3 | 3 | 5.1
CS(=O)(=O)c1ccc2nc(NC(=O)c3cccc(Cl)c3)sc2c1 | -0.7 | -1 | 2.6% | -7 | -19 | -1.8
COc1ccc([C@H]2CC(=O)C=C(c3ccc(OC)c(OC)c3)C2)cc1 | 0.5 | -3 | 5.6% | 9 | 18 | 1.9

In another format: four of the compounds above.
Structure: N/C(=N\OC(=O)CSc1ccccc1)c1cccc([N+](=O)[O-])c1
  TRPML1 agonist: 4.4 | Six1-Eya2 blk: -10 | PINK1 modulator: -1.7% | D2 PAM: 0 | CtBP-E1A blk: -6 | D2 ag: -5.0
Structure: COc1ccccc1-n1c(C)c2c(OC)cccc(=O)c2c1C
  TRPML1 agonist: 0.6 | Six1-Eya2 blk: -10 | PINK1 modulator: 7.5% | D2 PAM: 17 | CtBP-E1A blk: 3 | D2 ag: 2.6
Structure: CCCn1c(/C=C/c2ccccc2)nc2ccccc21
  TRPML1 agonist: 0.1&1.9 | Six1-Eya2 blk: 35 | PINK1 modulator: 1.2% | D2 PAM: -14 | CtBP-E1A blk: 57 | D2 ag: 1.1
Structure: CCOC(=O)COc1ccc(S(=O)(=O)N2CCN(c3ccccc3F)CC2)cc1
  TRPML1 agonist: 1.8 | Six1-Eya2 blk: 5 | PINK1 modulator: 1.9%[38.3 µM] | D2 PAM: -3 | CtBP-E1A blk: 3 | D2 ag: 5.1
